# KCNQ2 pot: potentiators of rat KCNQ2 potassium channel. Potassium voltage-gated channel subfamily KQT member 2 (Rattus norvegicus), O88943. CHO-K1 KCNQ2, FluxOR thallium flux fluorescence; stronger effect = higher value. B-score at 10 µM. 310,000 compounds, 0.54% hits;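 active means fluorescence ratio B-score at least 3 SD of library B-scores, with initial fluorescence B-score within 3 SD, cut at about 5.3 in these data; same plate scores as AID 2156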;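 further: B-score of peak minus minimum over baseline fluorescence ratio after K+ and Tl+ stimulus; positive B-score means potentiation of KCNQ2 with more thallium influx and brighter signal; only the inactives scoring about 0 or higher are listed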
# Target sequence (O88943 whole entry, looked up): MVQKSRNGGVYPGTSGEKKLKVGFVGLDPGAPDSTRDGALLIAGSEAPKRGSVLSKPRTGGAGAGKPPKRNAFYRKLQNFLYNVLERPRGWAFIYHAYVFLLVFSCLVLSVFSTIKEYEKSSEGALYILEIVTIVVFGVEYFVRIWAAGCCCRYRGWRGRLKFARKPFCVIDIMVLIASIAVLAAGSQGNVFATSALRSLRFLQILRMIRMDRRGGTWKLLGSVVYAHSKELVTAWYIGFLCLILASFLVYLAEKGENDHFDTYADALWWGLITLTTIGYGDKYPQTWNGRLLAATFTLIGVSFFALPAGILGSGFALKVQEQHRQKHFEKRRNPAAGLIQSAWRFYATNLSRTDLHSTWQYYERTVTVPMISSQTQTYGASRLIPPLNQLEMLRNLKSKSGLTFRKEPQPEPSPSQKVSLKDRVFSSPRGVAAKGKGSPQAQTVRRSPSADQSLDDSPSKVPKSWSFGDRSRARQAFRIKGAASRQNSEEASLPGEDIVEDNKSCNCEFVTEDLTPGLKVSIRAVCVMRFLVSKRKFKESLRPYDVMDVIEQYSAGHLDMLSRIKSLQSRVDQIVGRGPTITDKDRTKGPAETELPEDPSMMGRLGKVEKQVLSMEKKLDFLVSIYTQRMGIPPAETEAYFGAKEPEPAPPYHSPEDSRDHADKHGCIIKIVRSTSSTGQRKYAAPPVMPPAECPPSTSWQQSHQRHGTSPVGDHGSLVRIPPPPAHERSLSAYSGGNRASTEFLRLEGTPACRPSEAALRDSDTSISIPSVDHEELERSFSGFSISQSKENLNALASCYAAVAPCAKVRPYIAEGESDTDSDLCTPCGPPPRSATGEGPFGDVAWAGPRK
# KCNQ2 pot baseline: also measured in KCNQ2 pot; calls as there; B-score; compound at 10 µM; measured here: initial fluorescence intensity artifact check;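 brightness before thallium and not channel activity; 0 = typical well and far values either way flag optical interference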
# Starred values were filed as active, the others as inactive. A portion of the library, so the mix of outcomes need not match the whole.
# Preview, 2 compounds:
SMILES,KCNQ2 pot,KCNQ2 pot baseline
Cc1cc(OCC(=O)NC(Cc2ccc(Cl)cc2)C(=O)O)c2c(C)c(C)c(=O)oc2c1 (configuration not stated),1.28,-1.06
CCCCCc1c(C)nc(NCc2ccccc2)[nH]c1=O,0.61,-0.01

# This part in full, repeating the preview:
SMILES,KCNQ2 pot,KCNQ2 pot baseline
Cc1cc(OCC(=O)NC(Cc2ccc(Cl)cc2)C(=O)O)c2c(C)c(C)c(=O)oc2c1 (configuration not stated),1.28,-1.06
CCCCCc1c(C)nc(NCc2ccccc2)[nH]c1=O,0.61,-0.01
Cc1ccc(NC(=O)CSc2nnc(-c3cnccn3)n2Cc2ccco2)cc1C,0.87,0.59
Cc1ccnc(NC2(C(F)(F)F)N=C(c3ccccc3)NC2=O)c1 (configuration not stated),1.95,-1.44
CCC(C)(C)NC(=O)C(c1ccc(F)cc1)N(CCOC)C(=O)CCC(=O)Nc1nccs1 (configuration not stated),0.13,-0.22
O=C(N/N=C/c1cc2c(cc1Br)OCO2)c1cc2ccccc2o1,0.04,0.26
CSc1nc2n(n1)C(c1cccs1)C1=C(CCCC1=O)N2 (configuration not stated),1.2,0.01
CC(=O)Nc1ccc(NC(=O)Nc2cccc(C)c2C)cc1,1.21,-2.05
Cc1cc(C)cc(NS(=O)(=O)c2cc3[nH]c(=O)c(=O)[nH]c3cc2C)c1,0.87,-1.39
CC1CCC(C(C)C)C(OC(=O)CSc2n[nH]c(=O)[nH]c2=O)C1 (configuration not stated),1.17,2.44
Cc1ccnc(NS(=O)(=O)c2cc(-c3cc(C)no3)ccc2C(C)C)c1,0.21,0.53
Fc1ccccc1CNCc1ccc2c(c1)OCO2,1.32,-0.45

# Profiles as entered above. Screens in order: KCNQ2 pot	KCNQ2 pot baseline
# `CSc1nc2n(n1)C(c1cccs1)C1=C(CCCC1=O)N2` (configuration not stated) as listed: 1.2	0.01
# `Cc1cc(OCC(=O)NC(Cc2ccc(Cl)cc2)C(=O)O)c2c(C)c(C)c(=O)oc2c1` (configuration not stated) as listed: 1.28	-1.06

# Five compounds already listed, sorted by formula weight, low to high:
SMILES,KCNQ2 pot,KCNQ2 pot baseline
Fc1ccccc1CNCc1ccc2c(c1)OCO2,1.32,-0.45
Cc1ccnc(NC2(C(F)(F)F)N=C(c3ccccc3)NC2=O)c1 (configuration not stated),1.95,-1.44
Cc1ccnc(NS(=O)(=O)c2cc(-c3cc(C)no3)ccc2C(C)C)c1,0.21,0.53
O=C(N/N=C/c1cc2c(cc1Br)OCO2)c1cc2ccccc2o1,0.04,0.26
Cc1cc(OCC(=O)NC(Cc2ccc(Cl)cc2)C(=O)O)c2c(C)c(C)c(=O)oc2c1 (configuration not stated),1.28,-1.06

# Looked up above:
# Value of `CC(=O)Nc1ccc(NC(=O)Nc2cccc(C)c2C)cc1` under KCNQ2 pot: 1.21
# Value of `Cc1cc(OCC(=O)NC(Cc2ccc(Cl)cc2)C(=O)O)c2c(C)c(C)c(=O)oc2c1` (configuration not stated) under KCNQ2 pot: 1.28

# (continued)
SMILES,KCNQ2 pot,KCNQ2 pot baseline
COc1cc2nc(CN3CCOCC3)n(CC(=O)N3CCCCCC3)c(=O)c2cc1OC,1.49,-1.73
O=C(CSc1nc2ccccc2n1S(=O)(=O)c1ccccc1)N1CCCC1,0.78,-1.25
Cc1cccc(Oc2nc(-c3cccc([N+](=O)[O-])c3)nc3ccccc23)c1C,0.21,-0.2
Cn1ccnc1Sc1nc2c(c(=O)n(C)c(=O)n2C)n1C,0.6,0.54
CCC(=O)N1CCc2cc(S(=O)(=O)NC(C(=O)NC(C)c3ccccc3)C(C)C)ccc21 (configuration not stated),0.12,0.53
COc1cc(/C=N/c2oc(C)c(C)c2C#N)cc(Br)c1O,0.12,-1.3
Cc1c(Cl)c([N+](=O)[O-])nn1CC(=O)NC1CCCCC1,0.15,0.04
Cc1ccc(/C=N/NC(=O)CNC(=O)COc2ccc(Cl)cc2)o1,0.32,7.92
O=C(CCN1C(=O)c2ccccc2C1=O)Nc1nc2ccccc2s1,0.49,0.37
Cc1nnc(SCc2ccc(C(=O)O)cc2)s1,0.77,-0.52
Cc1ccccc1NS(=O)(=O)c1ccc(C(=O)OCC(=O)NCC(C)C)cc1,0.17,0.94
COc1cccc(CN(CC(=O)NC2CCCC2)C(=O)Cn2nnc(-c3cccs3)n2)c1,0.61,-1.55
COc1ccc(S(=O)(=O)NCCSCc2ccco2)cc1,0.64,-0.84
CCCCCCSc1ccc(-c2nc3ccc(C)cn3c2NC2CCCCC2)cc1,2.4,1.24
O=C(c1cccc(S(=O)(=O)N2CCOCC2)c1)N(CCO)Cc1ccccc1,0.7,3.41
Cn1c(SC2C(=O)CC(C)(C)CC2=O)nnc1-c1ccco1,0.01,0.75
Cc1cc(OCC(=O)NCCCn2ccnc2)c2c(C)cc(=O)oc2c1,0.95,1.72
CC1=C(C(=O)NCc2ccccc2)C(c2ccccc2OCC(N)=O)NC(=O)N1 (configuration not stated),0.41,0.51
O=C(N/N=C/c1cccc(OCC(=O)N2CCCC2)c1)C(=O)Nc1ccccc1F,0.26,0.23
Cc1ccc2c(c1)c(C)c(C)n2CC(O)CN1CCCCC1C (configuration not stated),2.59,1.83
CCc1nn(CC(=O)NCCCN(CC)CC)c(=O)c2cc3sc(C)cc3n12,0.19,-0.89
CCn1c(SCC(=O)Nc2ncc(C(F)(F)F)cc2Cl)nnc1-c1ccccc1,1.37,0.73
COc1ccc2c(c1)cc(C(=O)N[C@@H](CCSC)C(=O)N1CCC(C(=O)O)CC1)n2C,0.32,0.04
COc1cc(NS(=O)(=O)c2ccc(N/C=C(\C=O)c3nc4cc(Cl)ccc4o3)cc2)nc(OC)n1,1.37,-0.65
CCn1c(=O)c(-c2ccccc2)c(O)c2ccccc21,3.07,-0.8
O=C(NC1CCCCC1)N1CCN(Cc2nc3ccccc3c(=O)[nH]2)CC1,0.44,-1.05
CCCc1nc2sc3c(c2c(=O)n1NC(=O)CCCl)CCCC3,16.7*,-0.02*
COCCNC(=S)N/N=C(\C)c1ccc(Cl)c(Cl)c1Cl,0.73,0
Cc1ccc(NC(=O)Nc2nnc(Cc3ccc([N+](=O)[O-])cc3)s2)cc1C,2.31,-1.19
COc1ccc2c(c1OC)C(=O)N(c1nc(SC)n[nH]1)C2=O,2.34,-1.58
CC(C)[C@H](NC(=O)c1ccccc1)C(=O)OCC(=O)c1ccccc1F,0.55,0.3
CN(Cc1ccco1)C(=O)C1CCCN(c2ncnc3c2nc2n3CCCCC2)C1 (configuration not stated),2.1,-0.36
Cc1ccccc1N(CC(=O)NCC1CCCO1)C(=O)CNS(=O)(=O)c1ccc(F)cc1 (configuration not stated),0.5,0.68
COC(=O)c1ccccc1S(=O)(=O)Oc1ccc(-c2ccc(C(=O)O)cc2)cc1,0.2,2.42
CNC(=O)c1ccccc1-c1ccccc1,1.57,-0.02
COc1ccc(/C(O)=C2/C(=O)C(=O)N(CCN3CCOCC3)C2c2cccnc2)cc1OC (configuration not stated),1.02,-0.41
COc1ccc(OCC(NS(=O)(=O)c2ccc(-n3cnnn3)cc2)C(C)C)cc1 (configuration not stated),0.72,-0.06
CCN1CCN(C(c2cccc(OC)c2OC)c2nnnn2Cc2ccco2)CC1 (configuration not stated),0.65,0.4
COc1cc2c(cc1OC)CN(C(=O)CSc1nnc(C)s1)CC2,0.03,-0.62
CCOc1ccc(S(=O)(=O)NCCC(=O)NCc2ccncc2)cc1,0.94,0.95
CCC1CCCCN1Cc1ccc(OC)c(OC)c1 (configuration not stated),1.24,-0.21
O=C(CSc1nncs1)NC(=O)NCc1ccccc1,2.27,0.82
O=C(O)CCCc1c(-[n+]2ccccc2)[nH]c2ccccc12,0.02,0.56
CCN(C(=O)CSc1ccc2ccccc2n1)C1CCS(=O)(=O)C1 (configuration not stated),0.03,0.08
CCC(C)(C)NC(=O)C(c1ccc(F)cc1)N(Cc1cccs1)C(=O)c1cnccn1 (configuration not stated),0.01,2.44
CCN(CC)S(=O)(=O)c1ccc(O)c(C(=O)OCC(=O)N2c3ccccc3CC2C)c1 (configuration not stated),0.92,-0.08
COC(=O)c1nnn(-c2nonc2N)c1CN1CCCC1,0.72,0.63
O=C(CN1CCN(C(=O)c2c(F)cccc2F)CC1)Nc1ccccc1C(F)(F)F,0.01,-2.77
CCOc1ccc(C2C(C(=O)c3ccco3)=C(O)C(=O)N2Cc2cccnc2)cc1OC (configuration not stated),1.71,0.82
Cc1ccc(S(=O)(=O)Nc2ccc(NC(=O)c3ccc(F)cc3)cc2)cc1,0.4,-2.04
c1ccc(-c2nc(NCC3CCCO3)c3oc4ccccc4c3n2)cc1 (configuration not stated),0.42,-1.87
OCCN1CCN(CC(O)COc2ccc(Cl)cc2)CC1 (configuration not stated),0.32,0.39
Cc1ccc(NC(=O)Cn2cc([N+](=O)[O-])nc2C)cc1C,3.06,-0.74
CC1=C/C(=N\N=C2\NC(=O)C(CC(=O)Nc3ccccc3)S2)CC(C)(C)C1 (configuration not stated),1.09,-2.04
COc1ccc2c(c1OC)CCC2=O,1.87,0.08
Cc1ccc(NC(=O)C2CC(=O)N(Cc3ccccc3)C2)cc1S(=O)(=O)N1CCCCCC1 (configuration not stated),0.1,0.46
Cc1cc(=O)[nH]c(SCC(=O)Nc2ccnc3ccccc23)n1,0.37,0.51
CN1CC(=O)N(CC(=O)Nc2cc(Cl)cc(Cl)c2)C1=O,0.03,-1.33
O=C(COC(=O)C1COc2ccccc2O1)NC1CCS(=O)(=O)C1 (configuration not stated),1.05,0.02
O=C(CS(=O)(=O)Cc1ccccc1)Nc1cccnc1,0.55,1.17
# New compounds follow.
SMILES,KCNQ2 pot,KCNQ2 pot baseline
CCOc1ccccc1Nc1ncnc2ccccc12,0.46,-1.92
COc1ccccc1C(=O)Nn1c(C)nc2ccccc2c1=O,0.27,0.87
Cc1nc(-c2ccc(F)cc2)c(CC(=O)N2CCN(S(=O)(=O)c3cccc(F)c3)CC2)s1,2.84,-0.69
NS(=O)(=O)c1ccc(CNC(=O)c2ccc(Cl)cc2[N+](=O)[O-])cc1,0.06,1.25
Cc1ccc(F)cc1NC(=O)COC(=O)COc1ccc(C#N)cc1,0.97,-1.28
O=c1[nH][nH]c2cc(=O)n(-c3cccc(C(F)(F)F)c3)nc12,1.15,0.15
Cn1c(Cc2cccs2)nnc1SCc1nc2ccccc2[nH]1,0.29,0
COc1ccc(NC(=O)Nc2sc(NS(=O)(=O)c3ccccc3)nc2C)cc1,0.87,-0.58
COC(=O)c1c(C(=O)OC)c(C)n(Cc2cccnc2)c1C,0.14,-0.08
O=C(O)c1ccccc1C(=O)NCc1cccnc1,0.94,0.53
COc1ccc(S(=O)(=O)N2CCC(C(=O)NCc3ccncc3)CC2)cc1Cl,0.04,-1.26
CCNc1nc(NCC)nc(OCCOC(=O)Nc2ccccc2)n1,0.92,-1.38
Cc1nn(Cc2ccc(C(=O)NN)cc2)c(C)c1Cl,0.82,1.53
O=C(C1CC1)N1CCC(Oc2cccc(C(=O)N3CCCCC3CCO)c2)CC1 (configuration not stated),0.04,0
COc1ccc(CCNc2oc(-c3ccco3)nc2C#N)cc1,0.18,0.93
O=C(CNC(=O)c1ccco1)OCc1ccc(Br)cc1,1.19,0.76
Cc1ccc(-c2nnn3c2nc(NCCc2ccc(S(N)(=O)=O)cc2)c2ccccc23)cc1,0.34,0.87
N#Cc1c(-c2ccccc2)nc2n1CCS2,1.48,0.83
COc1ccccc1CCNC(=O)c1ccoc1C,0.61,1.56
O=C1CC(CCC(=O)NC2CC2)c2ccccc2N1 (configuration not stated),0.3,0.06
COc1cc(N)c(Br)cc1C(=O)O,0.68,-0.02
CN(C)C1=NC(=O)/C(=C\c2ccccc2)S1,0.02,-0.63
Cc1cc(C)cc(NC(=O)c2cccc3c2C(=O)N(C2CCCCC2)C3)c1,0.31,-1.11
COc1ccc(C2CCN(Cc3cccnc3)CC2O)cc1 (configuration not stated),0.03,1.33
Cc1c(C(=O)N2CCCCC2)c(S(=O)(=O)Nc2ccc(F)cc2F)c(C)n1C,2.02,1.12
CCOC(=O)c1c(C(=O)OCC)c(C)n(CCc2ccc(OC)c(OC)c2)c1C,0.55,0.71
CC(C)Sc1cc(N2CCOCC2)nc(-c2ccc(Cl)cc2)n1,0.73,-0.24
CC(=O)N1CCN(c2ccc(N=Cc3c(O)n(Cc4ccccc4)c(=O)[nH]c3=O)cc2)CC1,0.74,1.27
Cc1ccc(NC(=S)N2CCN(S(C)(=O)=O)CC2)cc1,0.23,-1.27
CCCN(C(=O)CSc1nnnn1C)C1CCS(=O)(=O)C1 (configuration not stated),0.4,-2.46
COc1ccccc1Cn1c(=S)[nH]c2cc(C(=O)N3CCC(C(N)=O)CC3)ccc2c1=O,0.44,1.1
Cc1cc(C)n2nc(SCc3ccc(C#N)cc3)nc2n1,1.23,0.06
CS(=O)(=O)N1CCCC(C(=O)Nc2ccc(F)cc2F)C1 (configuration not stated),2.69,-1.14
CCNc1nc(NCC)n2c(SCC(=O)Nc3ccccc3F)nnc2n1,0.95,-0.02
CC1CCN(S(=O)(=O)c2cnc[nH]2)CC1,1.2,-0.94
O=C(O)C1C2C=CC(C3CC23)C1C(=O)O (configuration not stated),0.04,1.82
O=C(Nc1ccccc1N1CCOCC1)c1ccc(OCc2cscn2)cc1,1.5,0.03
Cc1ccc(NC(=O)c2ccnc(C(C)(C)C)c2)cc1,1.73,1
O=C(Nc1ccc(N2CCCCC2)cc1)c1cncc(Br)c1,1.44,0.01
CC(C)c1nnc(NC(=O)CCS(=O)(=O)Cc2ccccc2)s1,0.02,-0.61
CCCCNC(=S)N/N=C/c1cccc(OCC)c1O,1.09,2.24
CCOc1ncccc1C(=O)NNC(=O)c1ccc(NS(=O)(=O)c2cccs2)cc1,2.37,-1.32
COc1ccc(Cc2nc3ccc(C(=O)N(C)Cc4nccs4)cc3o2)cc1OC,1.28,2.4
c1ccc(-c2ccc(CNC3CC3)cc2)cc1,1.24,-1.39
COc1ccc(C(=O)NNC(=O)c2ccccc2[N+](=O)[O-])cc1Br,0.3,0.26

# From PubChem BioAssay
